# Bioassay records (PubChem)
# BJeLR lethal – kills HRASV12-expressing BJeLR cells. AID 1554. 300,000 tested, 0.17% active. inhibition, % (no concentration beside the values). BJeLR (HRASV12) viability, CellTiter-Glo ATP luminescence, 48 h; reference of the scale not given here;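 active = replicate mean above 50%; inconclusive = above 50% but judged a plate artefact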;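 also: 50 nL library stock added to about 25 µL; numbers are from one replicate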
# RN4220 kill – kills Staphylococcus aureus RN4220; S. aureus RN4220 growth, OD600, 16 h; 330,000 tested, 0.33% active; inhibition, % (concentration not given with the values);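 active = z-score of -3 or lower and OD600 up to 0.18 on both plates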;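 also: plate controls were untreated cells for no effect and reference antibiotic for full effect; stock transfer was 100 nL into about 80 µL; one replicate is shown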
# Mtb hypoxia rep – Mtb hypoxia fluorescent reporter inhibition; M. tuberculosis hypoxia-regulated fluorescent reporter, fluorescence; fluorescence inhibition, % (test concentration not listed); 300,000 tested, 0.1% active; AID 1159583;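 active = 35 to 45% if threefold the growth effect, above 45% if 1.5-fold the growth effect; inactive = the rest, general growth blockers included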;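 also: wells of about 50 µL received 100 nL stock; 0% = vehicle wells and 100% = reference inhibitor wells; whole bacteria with a GFP reporter of the hypoxia response; strong numbers were not always called active; many hits fall short of the cut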
# ugtP null kill – kills S. aureus RN4220 lacking UgtP; S. aureus RN4220 ugtP deletion, OD600 growth, 16 h; some inactives read as strong as hits; growth inhibition, % (no concentration beside the values); 330,000 tested, 0.54% active;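 active = z-score under -3 and OD600 up to 0.15 on both plates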;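 also: plate controls were untreated wells for no effect and antibiotic for full effect; wells of about 80 µL received 100 nL stock; the first replicate is given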
# PrP 5UTR inh – suppresses PrP 5' UTR mRNA reporter expression; cell-based PrP 5' UTR mRNA reporter, plate reader; inhibition, % (no concentration beside the values); 340,000 tested, 0.35% active; AID 488862;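 active = every replicate at 50% or more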;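 also: 0 = median of the neutral control wells; tested in H4 reporter cells; numbers are from one replicate; inactives centre near -14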
# Autofluor counter – counter-screen for toxin protease inhibitors: compound fluorescence; compound autofluorescence counterscreen, microsphere flow cytometry; stronger effect = higher value; AID 624483; fluorescence intensity (no concentration beside the values); 360,000 tested, 3.1% active;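 active = at least 3 SD above the mean of all compounds, about 16000 in these data; inconclusive = too few beads counted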;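 also: 100 nL of 1 mM stock went into each well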
# Mtb hypoxia rep growth – recorded beside Mtb hypoxia rep, whose call it bears; growth inhibition, %; measured here: M. tuberculosis growth (absorbance);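 0% = vehicle and 100% = reference antibiotic; read after six days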
# * hit, by the source's call; ? = inconclusive; / = not tested or not shown.
SMILES,BJeLR lethal,RN4220 kill,Mtb hypoxia rep,Mtb hypoxia rep growth,ugtP null kill,PrP 5UTR inh,Autofluor counter
Cc1c(Cl)c([N+](=O)[O-])nn1CCCC(=O)Nc1cccc(Cl)c1,-14,8.1,6,7,-12,-19,10249
O=C(NNC(=O)c1cccnc1SCc1cccc([N+](=O)[O-])c1)c1ccc(F)cc1,-4,-4.6,-4,-5,-2,-21,10368
C#CCOCCOCCOCCNc1nc(N2CCN(C(=O)[C@H]([C@@H](C)CC)n3cc([C@@H](N)CC(C)C)nn3)CC2)nc(N2CCN(C(=O)[C@H](CCCCN)n3cc([C@@H](N)CO)nn3)CC2)n1,2,/,/,/,/,-15,4226
COc1ccccc1N1CCN(S(=O)(=O)c2ccc3c(c2)NC(=O)C(C)C(=O)N3)CC1 (configuration not stated),-28,8.5,1,1,6,-20,6599
C=CCn1c(=O)c2ccccc2n2c(SCC(=O)Nc3sc(C(=O)N(CC)CC)c(C)c3C(=O)OCC)nnc12,-5,4.1,-1,7,-22,0,2557
O=C(CCSCc1ccccc1Cl)NCc1cccs1,1,3.3,6,4,21,-5,5952
COc1cc(NC(=O)Cn2nc(C(F)(F)F)c3c2CCCC3)cc(OC)c1OC,3,5.3,10,7,9,-10,2947
COc1ccc(NC(=O)Cn2c(=O)n(Cc3ccco3)c(=O)c3ccccc32)cc1,15,1.8,4,4,6,0,8595
CC(C)(C)c1ccc(C(=O)N2CCN(c3nc4ccccc4o3)CC2)cc1,-1,-6.2,11,10,-11,-40,5482
CCCN1C2CCCC1CC(NC(=S)Nc1cccc(C)c1C)C2 (configuration not stated),-4,2.3,9,-1,0,-20,5710
CNC(=O)c1ccc(NC(=O)Cc2ccc(S(=O)(=O)N3CCOCC3)s2)cc1,-3,-4.6,-8,-7,-7,-16,5792
COC(=O)c1ccc(COc2ccc(C(=O)c3ccccc3)cc2)o1,-1,5.3,8,10,10,-9,5235
N#C/C(=C(/O)COC(=O)COc1cccc(Br)c1)c1nc2ccccc2[nH]1,-2,6.2,10,-1,-2,-34,4484
O=C(NC1CCCC1)C1CCC(=O)N1CCc1ccccc1 (configuration not stated),5,6.5,3,2,16,-12,7822
Cn1cc([N+](=O)[O-])c(C(=O)Nc2ccc(C3CCCCC3)cc2)n1,7,-1.1,10,12,9,-37,4608
CN1CCN(S(=O)(=O)c2ccc(N3CCN(C(=O)c4ccccc4)CC3)nc2)CC1,-5,-1.4,-7,3,-2,-20,5247
CCCN1CCN(CCCNC(=O)c2cc3c(=O)oc4ccc(C)cc4c3s2)CC1,-3,-2.7,8,11,11,0,5976
O=C(NNS(=O)(=O)c1ccc(Br)cc1)c1csnn1,/,51,7,9,36,-6,3586
CCCn1nc(Oc2nc(NCC)nc(NC(C)C)n2)ccc1=O,1,1.7,/,/,5,-10,4702
O=C(COc1ccc(Cl)cc1)OCC(=O)N1CCCC1,-1,8.7,8,7,1,-4,3355
CCOc1ccc(NC(=S)NN2CCN(C)CC2)cc1,-12,2.5,12,-4,12,-19,2210
COc1cccc(C(=O)Nc2nnc(-c3ccc(F)cc3)o2)c1,3,42,-1,-4,23,-21,5757
CCN1CCN(c2cc(C)c3cc(NC(=O)c4ccc(C)c(C)c4)ccc3n2)CC1,16,-1.1,2,14,-4,/,3831
CN(CC(=O)Nc1ccc(F)cc1)C(=O)COC(=O)CNC(=O)c1sc2ccccc2c1Cl,7,/,/,/,/,-6,?
C=CCC1(CC=C)CCCN1C(=O)c1cc(COc2cncc(Cl)c2)on1,13,/,/,/,/,-6,6163
# The listing continues.
SMILES,BJeLR lethal,RN4220 kill,Mtb hypoxia rep,Mtb hypoxia rep growth,ugtP null kill,PrP 5UTR inh,Autofluor counter
Fc1cccc(NC(=S)NCc2ccc(Cl)cc2)c1,14,-2.0,8,4,-18,-23,2552
Cc1ccc(C2=NC3(CCCC3)N=C2SCC(=O)Nc2ccc3c(c2)OCCO3)cc1,-11,/,/,/,/,-15,5562
CCOc1ccc(=O)n(-c2ccccc2)n1,0,7.1,13,4,-5,-48,4401
O=C(COC(=O)c1ccc2c(c1)OCO2)Nc1ccccc1F,/,4.6,-2,3,1,4,3061
O=C(NCCc1ccccc1)C(=O)NCC1OCCN1S(=O)(=O)c1ccccc1 (configuration not stated),2,5.1,1,2,7,3,4914
CN(C)S(=O)(=O)c1ccc(C(=O)N(c2ccccn2)c2ccccn2)cc1,1,-3.2,2,5,-3,-17,22500*
Cc1cc2nnc(SCC(=O)N3C(C)CCCC3C)n2c(N)n1 (configuration not stated),10,0.5,5,7,4,-21,22651*
Cn1c2c(c(O)c(-c3ccccc3)c1=O)C(=O)CC(C)(C)C2,2,9.8,1,6,0,-19,7560
CCCCN(Cc1ccco1)C(=O)c1cc2c(=O)[nH]c3ccc(C)cc3c2s1,9,26,5,7,1,-20,6055
Cc1cc(C)cc(N(CCC#N)C(=O)COC(=O)CCc2c[nH]c3ccccc23)c1,/,-3.9,-2,6,-1,-4,9043
Cc1ccc(CS(=O)(=O)CCC(=O)NCCc2ccccc2)cc1,1,-0.4,-5,6,-3,-14,3901
Cn1c(Cl)c(C=NOC(=O)C2CC2)c2ccccc21,/,16,20,12,7,/,/
CCn1c(C)nnc1SCC(=O)Nc1ccccc1OC,-16,3.4,12,8,3,-27,3541
O=C(O)c1ccccc1-c1ccc(C=c2sc3nc4cc(Br)cnc4n3c2=O)o1,/,13,1,4,-8,/,3731
COc1cccc(N2C(=O)C3CCCN3C2c2ccc(Cl)cc2)c1 (configuration not stated),-11,1.3,/,/,7,0,7134
Cc1noc(C)c1CSCC(=O)Nc1ccc(Br)cc1Cl,1,6.3,1,0,4,-18,5785
COc1ccc(-n2nnnc2-c2cn(C)nc2C(F)(F)F)cc1,0,-1.1,/,/,-1,-2,4530
O=C1CSc2ccc(C(=O)N3CCN(c4ccccn4)CC3)cc2N1,0,0.6,13,9,2,-32,25914*
CCN1CCN(c2ccc([N+](=O)[O-])cc2S(=O)(=O)N2CCOCC2)CC1,9,3.7,5,3,1,-19,4497
CC(/C=C/c1ccco1)=N/NC(=O)C1COc2ccccc2O1 (configuration not stated),-8,/,/,/,/,-24,4650
CCOc1ccc(-c2c(C(=O)N/N=C/c3ccsc3)nnn2-c2nonc2N)cc1,-11,/,/,/,/,-3,5010
Cc1ccc(/C=N\Nc2cn[nH]c(=O)c2Cl)cc1,17,/,/,/,/,-10,23558*
CC(=O)NNC(=S)NCCc1ccccc1,5,-5.2,-2,2,-2,-8,4979
COC(=O)C1N[C@@H]([C@@H](NC(=O)COc2ccccc2)C(=O)NCc2ccccc2)SC1(C)C (some centres not stated),-11,/,/,/,/,-26,4208
COc1ccc(C2C(C(=O)NCCN(C)C)c3cc(OC)c(OC)cc3C(=O)N2C)cc1OC (configuration not stated),-9,1.1,12,8,-2,-23,9633

# Record cards (already shown).
# `COc1ccc(C2C(C(=O)NCCN(C)C)c3cc(OC)c(OC)cc3C(=O)N2C)cc1OC` (configuration not stated) reads BJeLR lethal = -9; RN4220 kill = 1.1; Mtb hypoxia rep = 12; Mtb hypoxia rep growth = 8; ugtP null kill = -2; PrP 5UTR inh = -23; Autofluor counter = 9633
# `Cn1c2c(c(O)c(-c3ccccc3)c1=O)C(=O)CC(C)(C)C2` reads BJeLR lethal = 2; RN4220 kill = 9.8; Mtb hypoxia rep = 1; Mtb hypoxia rep growth = 6; ugtP null kill = 0; PrP 5UTR inh = -19; Autofluor counter = 7560

# A second format for part of the listing above.
mol | BJeLR lethal | RN4220 kill | Mtb hypoxia rep | Mtb hypoxia rep growth | ugtP null kill | PrP 5UTR inh | Autofluor counter
CN(C)S(=O)(=O)c1ccc(C(=O)N(c2ccccn2)c2ccccn2)cc1 | 1 | -3.2 | 2 | 5 | -3 | -17 | 22500*
Cc1cc2nnc(SCC(=O)N3C(C)CCCC3C)n2c(N)n1 (configuration not stated) | 10 | 0.5 | 5 | 7 | 4 | -21 | 22651*
Cn1c2c(c(O)c(-c3ccccc3)c1=O)C(=O)CC(C)(C)C2 | 2 | 9.8 | 1 | 6 | 0 | -19 | 7560
CCCCN(Cc1ccco1)C(=O)c1cc2c(=O)[nH]c3ccc(C)cc3c2s1 | 9 | 26 | 5 | 7 | 1 | -20 | 6055
Cc1cc(C)cc(N(CCC#N)C(=O)COC(=O)CCc2c[nH]c3ccccc23)c1 | / | -3.9 | -2 | 6 | -1 | -4 | 9043

# Part of the list above with just PrP 5UTR inh, ugtP null kill and Mtb hypoxia rep.
compound	PrP 5UTR inh	ugtP null kill	Mtb hypoxia rep
Cc1cc2nnc(SCC(=O)N3C(C)CCCC3C)n2c(N)n1 (configuration not stated)	-21	4	5
Cn1c2c(c(O)c(-c3ccccc3)c1=O)C(=O)CC(C)(C)C2	-19	0	1

# Additional records follow:
SMILES,BJeLR lethal,RN4220 kill,Mtb hypoxia rep,Mtb hypoxia rep growth,ugtP null kill,PrP 5UTR inh,Autofluor counter
COc1ccc(N2C(=NC(=O)c3ccccc3)SC3CS(=O)(=O)CC32)cc1 (configuration not stated),-4,2.7,-7,-8,6,-5,3114
COC(=O)C1=CN(C)C=C(C(=O)OC)C1c1ccc(Cl)cc1Cl,3,2.7,1,0,-4,2,3956
COc1ccc(N2C(=O)CSC2c2cccc(OC)c2OC)cc1 (configuration not stated),-3,9.6,9,4,-2,-30,2032
CC1=C(C(=O)N(C)C)C(c2cccc(Cl)c2)NC(=O)N1 (configuration not stated),-3,-0.9,-4,3,-4,-13,3293
CCOC(=O)c1c(N)n[nH]c1-c1ccc(OC)cc1,-4,1.0,-3,8,1,-5,11239
O=C(NC1CCC(O)CC1)c1cc(-c2ccc(Cl)cc2)nc2ccccc12 (configuration not stated),/,6.5,17,1,7,/,/
CCc1cc(CC)c(/C=N/NC(N)=O)c(CC)c1/C=N/NC(N)=O,6,/,/,/,/,-14,2577
CCc1ccccc1NC(=O)c1cc(-c2ccco2)on1,4,5.2,12,-3,0,-13,3091
c1ccc(-n2c(Sc3cnccn3)nnc2-c2cccs2)cc1,3,6.6,9,7,15,-2,6528
CCOC(=O)CSc1nnc(CSc2nc3ccccc3s2)n1C,7,1.3,8,3,7,-18,6325
COc1cc(NC(=O)CSc2cc(C)c3cc(C)cc(C)c3n2)c(C(=O)O)cc1OC,-9,2.7,-6,-2,7,-21,3863
CN(CC(=O)NC1CCCC1)S(=O)(=O)c1cccc(Cl)c1,/,2.7,2,0,-3,-21,3933
COC(=O)C(NC(C)=O)(Nc1cc(C)ccn1)C(F)(F)F (configuration not stated),-14,8.6,1,3,-2,-8,4705
CC(C)C(=O)NCCc1nc2ccccc2n1CCCOc1ccc(Cl)cc1,1,-5.0,17,6,-12,-1,2544
CCCN[C@@H]1C(=O)N2C(C(=O)OCCC)=C(C)CS[C@H]12,-9,/,/,/,/,-10,4574
CC(=O)Oc1ccc(C2(C)CC(C)(C)NC(=S)N2C)c(OC(C)=O)c1 (configuration not stated),-1,6.1,-3,-5,8,-14,4515
CCN(CC)S(=O)(=O)c1ccc(-n2cnc3cc(C)c(C)cc32)nc1,-6,5.2,10,13,13,-1,4191
CC(C)(C)n1nc2c(c1NC(=O)C1CC(=O)N(c3ccc(Cl)cc3)C1)CS(=O)(=O)C2 (configuration not stated),4,1.9,6,-1,0,-9,5578
COc1ccc(CCNC(=O)CC(Cc2ccccc2)C(=O)O)cc1OC (configuration not stated),-6,3.4,12,4,10,-14,3165
Cc1ccc(COC(=O)c2cccc(S(=O)(=O)N3CCCCCC3)c2)cc1,/,8.3,3,0,13,-16,9379
CCOC(=O)c1[nH]c(C)c(C(=O)OCC(=O)N2CCCCC2C)c1C (configuration not stated),-13,-7.2,-7,6,-8,-9,3817
CCSc1nnc(-c2sc3nnc(-c4ccccc4)c(-c4ccccc4)c3c2N)o1,0,-31,-18,3,10,-3,5874
Cc1cccn2cc(CCNS(=O)(=O)c3ccc4c(c3)OCCO4)nc12,1,-7.2,6,9,-5,-10,4596
